# Source: PubChem (National Center for Advancing Translational Sciences (NCATS))
# CtBP-E1A blk – qHTS Assay for Inhibitors of the CtBP/E1A Interaction. CtBP / adenovirus E1A interaction (AlphaScreen). AlphaScreen GST-E1A/His-CtBP binding, 1536-well; stronger effect = lower value; control for the full effect not named in the record. activity change, % (no concentration beside the values). 0.49% of 340,000 active. AID 651724, 2012; in the data active means activity change below about -65%; inconclusive means about -30% to -65%; inactive means above about -30%; further: on the % scale 0 is the no-effect control and ±100 the full control effect; compound concentration not given in the record
#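 GST-E1A and His-tagged CtBP (125 nM each as 5X stock) were preincubated with pin-transferred compound for 2 h at 37 °C in the dark, then glutathione donor and nickel acceptor beads were added for 1 h before AlphaScreen reading.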
# D2 potentiator – Beta-Arrestin HTS for Positive Allosteric Modulators of the Human D2 Dopamine Receptor: Potentiators; AID 624464, 2012; DiscoveRx D2 beta-arrestin cells, luminescence, 90 min; 100% = 57 uM dopamine signal; D(2) dopamine receptor (Homo sapiens), P14416; 0.23% of 360,000 active; potentiation, % (test concentration not listed); active = potentiation of 50% or more; inconclusive = 30% to 50%; inactive = 30% or less;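 further: compound concentration not given in the record; tested on top of an EC20 dose of dopamine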
# Target sequence (P14416 whole entry, looked up): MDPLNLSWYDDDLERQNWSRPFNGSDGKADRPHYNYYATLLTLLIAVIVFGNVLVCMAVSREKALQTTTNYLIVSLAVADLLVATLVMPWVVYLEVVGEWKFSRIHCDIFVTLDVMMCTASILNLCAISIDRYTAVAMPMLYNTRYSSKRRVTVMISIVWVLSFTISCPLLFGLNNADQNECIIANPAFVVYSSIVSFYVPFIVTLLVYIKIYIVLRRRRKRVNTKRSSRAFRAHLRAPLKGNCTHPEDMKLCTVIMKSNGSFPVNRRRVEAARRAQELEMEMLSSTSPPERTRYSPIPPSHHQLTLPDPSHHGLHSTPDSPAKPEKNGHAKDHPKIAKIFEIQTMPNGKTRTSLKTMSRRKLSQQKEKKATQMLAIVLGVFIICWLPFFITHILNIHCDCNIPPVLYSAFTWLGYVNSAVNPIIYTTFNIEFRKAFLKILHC
#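 D2 cells co-treated with compound plus 50 nM dopamine (EC20) for 90 min at 37 deg C to detect potentiation. Beta-arrestin recruitment was read as enzyme-fragment luminescence after 1 h at ambient temperature. Full response was set by 57 uM dopamine.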
# Six1-Eya2 blk – qHTS Assay for Inhibitors of the Six1/Eya2 Interaction; AID 651725, 2012; AlphaScreen GST-Six1/His-Eya2 binding, biochemical; stronger effect = lower value; control for the full effect not named in the record; Homeobox protein SIX1 (Homo sapiens) + Protein phosphatase EYA2 (Homo sapiens), …; activity change, % (test concentration not listed); 0.56% of 360,000 active; in the data active = activity change below about -65%; inconclusive = about -30% to -65%; inactive = above about -30%; further: on the % scale 0 is the no-effect control and ±100 the full control effect; compound concentration not given in the record
#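 Compounds are tested against tagged Six1 and Eya2 proteins bridged by glutathione donor and nickel acceptor beads; after a one-hour incubation at 37 °C without light, AlphaScreen emission is recorded.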
# D2 agonist – Beta-Arrestin HTS for Positive Allosteric Modulators of the Human D2 Dopamine Receptor: Agonists; D(2) dopamine receptor (Homo sapiens), P14416; DiscoveRx PathHunter D2 beta-arrestin, luminescence, 90 min; 100% = 57 uM dopamine signal; activation, % (no concentration beside the values); 0.084% of 360,000 active; in the data active = activation above about 40%; inconclusive = about 15% to 40%; inactive = below about 15%; further: compound concentration not given in the record; the text of the record calls up to 30% inactive
#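 Agonist mode: compounds alone added to overnight-plated D2 PathHunter cells for 90 min at 37 C, with 57 uM final dopamine (EC100) defining full response. Beta-arrestin recruitment detected by chemiluminescent reagent, read after 1 h at ambient temperature.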
# PINK1 modulator – A Quantitative High throughput Screen to Identify Chemical Modulators of PINK1 Expression | PINK1 immunofluorescence, high-content cytometry, 24 h | Potency, µM (series often up to 76.6 µM), inactives show at the top dose activation (PINK1 increase), actives largely listed as activators | 0.2% of 410,000 active; active = well fitted activation curve with a large enough effect; inconclusive = small, poorly fitted or top-dose-only effect; inactive = flat fitted curve, though single readings scatter; cell line not stated here;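 further: potency means the concentration at half of the fitted maximal effect; % of control where 0% means no effect; nearly all actives have a fitted effect of over 65% in size; a mitochondrial uncoupler was the plate control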
#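 PINK1 protein, normally rapidly degraded, was detected by immunofluorescence after 24 hour compound treatment of a stable cell line. Titration data (5 concentrations) came from laser-scanning cytometry, with CCCP-treated wells as controls.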
# TRPML1 ag – qHTS for Agonists of the Human Mucolipin Transient Receptor Potential 1 (TRPML1). Mucolipin-1 (Homo sapiens), Q9GZU1. TRPML1-expressing cells, Ca2+ dye fluorescence, FDSS; host cell line not named in the record; reference of the full effect not given here. activation, % (no concentration beside the values). 0.12% of 410,000 active. AID 624414, 2012; in the data active = activation above about 50%; inconclusive = about 30% to 50%; inactive = below about 30%; further: 0% is about no effect; the text of the record puts the active cut at 80%
# Target sequence (Q9GZU1 whole entry, looked up): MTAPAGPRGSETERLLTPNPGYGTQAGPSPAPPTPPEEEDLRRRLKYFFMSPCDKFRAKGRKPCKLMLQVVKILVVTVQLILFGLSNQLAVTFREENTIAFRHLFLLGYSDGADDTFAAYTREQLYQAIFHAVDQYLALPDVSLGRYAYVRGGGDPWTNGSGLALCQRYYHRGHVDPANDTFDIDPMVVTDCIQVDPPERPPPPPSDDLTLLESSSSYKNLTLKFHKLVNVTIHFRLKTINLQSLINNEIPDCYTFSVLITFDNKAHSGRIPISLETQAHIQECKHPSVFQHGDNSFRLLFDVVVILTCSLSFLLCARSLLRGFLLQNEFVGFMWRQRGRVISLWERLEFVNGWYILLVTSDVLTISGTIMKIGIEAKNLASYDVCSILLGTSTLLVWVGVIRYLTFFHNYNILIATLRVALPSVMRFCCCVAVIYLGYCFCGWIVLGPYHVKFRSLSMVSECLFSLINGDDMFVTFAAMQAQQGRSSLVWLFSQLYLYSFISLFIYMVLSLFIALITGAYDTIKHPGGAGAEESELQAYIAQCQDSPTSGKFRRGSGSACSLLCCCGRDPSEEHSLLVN
#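 Agonist activity was taken from a 110 s kinetic Ca2+ dye read on the FDSS after pinning compounds onto TRPML1-DL cells. The cells were seeded at 1,500/well with Tet inducer, incubated about 16 h, then dye-loaded at room temperature.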
# The depositor's hits bear a star; u = inconclusive; x = not tested or not shown; & = joins results of further samples; [ ] = another dose, or the depositor's remark. This is a subset. The share of hits here may be higher or lower than overall.
structure	CtBP-E1A blk	D2 potentiator	Six1-Eya2 blk	D2 agonist	PINK1 modulator	TRPML1 ag
O=c1[nH]c(=O)n(CCC2=CCCCC2)c(O)c1/C=N/Nc1ccccc1	-6	30	0	4.0	-1.3%	2.4
COC12CCC3(CC1C(C)(O)C(C)(C)C)[C@H]1Cc4ccc(O)c5c4[C@@]3(CCN1CC1CC1)C2O5 (stereo partly specified)	-17	-6	-6	5.7	-0.6%	0.7
CCc1nc2ccccc2c(=O)n1-c1ccccc1[N+](=O)[O-]	8	-18	4	-3.0	2.8%	-0.2
O=c1ccc2cc(OC3O[C@H](CO)[C@@H](O)[C@H](O)[C@H]3O)c(O)cc2o1 (stereo partly specified)	-17	-6	6	-7.0	2.0%	-0.3
CCN(CC)C(=O)c1ccc(NC(=O)c2ccc(-c3nn(C)c(=O)c4ccccc34)cc2)cc1	x	-1	9	1.2	4.0%&1.1%	-0.4&-0.3
CCN1CCN(c2nc3c(c(=O)[nH]2)CCCC3)CC1	-6	1	4	1.0	-0.7%	0.0
CCOP(=O)(NC(C)C)Oc1ccc(SC)c(C)c1 (stereo unspecified)	-6	-2	1	-1.4	0.1%	-0.2
S=P(NCCSCc1ccccc1)(N1CC1)N1CC1	-7	-6	-15	0.0	-0.5%	-0.6
COc1cccc(CN2CCN(Cc3cccc(F)c3)CC2)c1	x	-77	2	-5.0	6.8%	x
Clc1ccc(C(OCCN2CCCCC2)c2ccccc2)cc1 (stereo unspecified)	5	0	0	-6.5	1.3%	0.1
N=C1c2ccccc2CN1c1cccc([N+](=O)[O-])c1	16	-7	1	3.2	0.9%	-0.6
CCN1CCN(C(=O)Cc2coc3ccc4ccccc4c23)CC1	-6	-24	-15	0.0	-0.3%	-0.5

# Continued; the last five above are carried over.
structure	CtBP-E1A blk	D2 potentiator	Six1-Eya2 blk	D2 agonist	PINK1 modulator	TRPML1 ag
S=P(NCCSCc1ccccc1)(N1CC1)N1CC1	-7	-6	-15	0.0	-0.5%	-0.6
COc1cccc(CN2CCN(Cc3cccc(F)c3)CC2)c1	x	-77	2	-5.0	6.8%	x
Clc1ccc(C(OCCN2CCCCC2)c2ccccc2)cc1 (stereo unspecified)	5	0	0	-6.5	1.3%	0.1
N=C1c2ccccc2CN1c1cccc([N+](=O)[O-])c1	16	-7	1	3.2	0.9%	-0.6
CCN1CCN(C(=O)Cc2coc3ccc4ccccc4c23)CC1	-6	-24	-15	0.0	-0.3%	-0.5
CCCCC(=O)C1C(=O)NC(=O)NC1=O	2	1	2	-1.7	1.3%	-0.4
Fc1ccc(Cn2nnnc2CN2CCC(n3nnc4cc(C(F)(F)F)ccc43)CC2)cc1	x	-12	4	-3.4	6.0%	-0.2
COc1ccc(-n2c(O)c(C=NCc3ccc4c(c3)OCO4)c(=O)[nH]c2=O)cc1	11	-4	1	-4.3	1.5%	-0.3
O=C(CN1CCCC1=O)N1CCOCC1	14	1	6	-1.1	22%[38.3 µM]	-0.4
CCC(=NCCC(c1ccccc1)c1ccccc1)c1c(O)[nH]c(=O)[nH]c1=O	-2	-16	-11	0.1	-2.8%	5.1
COCCCn1c(-c2ccc(OC)cc2)cc(C(=O)NC2CCCCCCC2)c1C	-21	-9	-23	-6.8	u	0.9
COc1ccc(OC)c(N2C(=O)NC(=O)C3(Cc4cc(C)ccc4N(C)C3)C2=O)c1 (stereo unspecified)	-11	-21	-1	-4.2	-0.8%	-0.6
CCOc1cc2c(cc1OCC)-n1cccc1C(c1ccc(C)cc1C)NC2 (stereo unspecified)	-20	-9	-27	1.2	7.4%	0.3
Cn1ncc(Cl)c1C(=O)N1CCC2(CC1)OCCO2	4	-4	1	-0.8	0.3%	-0.1
CCC(C)N1CCN(C(=O)Cc2ccccc2)CC1 (stereo unspecified)	1	-13	0	-4.9	-1.0%	-0.5
C[C@H]1CN([C@@H](C)CO)C(=O)CCCn2nncc2CO[C@H]1CN(C)C(=O)Oc1ccc2ccccc2c1	-23	-5	13	-3.4	3.0%	0.8
CN(CCc1ccccc1)Cc1c[nH]c2ccccc12	x	-5	-6	3.3	3.4%	-0.7
O=[N+]([O-])c1ccc(N2CCCC(C(F)(F)F)C2)c2ccncc12 (stereo unspecified)	-17	0	-30	6.6	-1.2%	1.1
O=C(c1ccc2c(c1)ncn2-c1ccc(F)cc1F)N1CCC2(CC1)OCCO2	2	-3	4	-1.8	1.8%	-0.6
CC(C)C(C)(NC(=O)c1cccn(Cc2ccc3c(c2)OC(F)(F)O3)c1=O)C(N)=O (stereo unspecified)	-9	-4	2	2.1	-1.4%	1.3
COC(=O)C1=C(c2cccc(C#N)c2)C[C@@H]2CC[C@H]1N2C(=O)NCc1ccco1	1	-7	5	0.5	1.2%	-0.4
CCOC(=O)c1c(C)n(Cc2ccco2)c2c1cc(O)c1ccccc12	-2	72*	-4	u	12%	2.0
CCCCOc1ccc(C(C)=O)cc1Cc1c(O)[nH]c(=S)[nH]c1=O	x	6	3	-1.4	1.1%	-0.1
COc1ccc(-n2nnnc2C(CCSC)N2CCC3(CC2)C(=O)NCN3c2ccccc2)cc1 (stereo unspecified)	-15	-7	-17	-4.9	0.7%	-0.2
Cc1ccc(-c2nn(Cc3ccccc3)cc2C(=O)O)cc1	x	-12	4	-1.7	-0.7%	-0.7
OC(c1ccccc1)(c1ccccc1)C1CCCN1 (stereo unspecified)	2	-3	5	-0.4	-2.8%[38.3 µM]	1.2
CCCCOC(=O)c1ccccc1C(=O)OCc1ccccc1	85	-10	13	-2.9	3.8%	1.3
CN1C(=O)N(C)C(=O)C2(Cc3ccccc3N3CCOCC32)C1=O (stereo unspecified)	5	10	1	-0.1	-1.8%	1.3
Cc1ccc2nc(N3CCN(C)CC3)[nH]c2c1	2	-6	9	-0.2	1.3%	0.2
CCN1CCN(Cc2cc(Br)cc(Br)c2O)CC1	-8	-45	-10	-3.8	-0.4%	3.9
O=c1[nH]c(=O)n(Cc2ccccc2)c(O)c1C=NCCN1CCOCC1	5	0	7	-1.0	-2.9%[38.3 µM]	0.4
Cc1cccn2c(NCC3CCCO3)c(C(C)C)nc12 (stereo unspecified)	1	-6	-2	-1.1	4.2%	0.3
CC(C)CCP(=O)(O)c1ccccc1	1	-3	3	-3.0	-0.6%[38.3 µM]	3.5
CC1CCC[C@H](O)CCCCCc2cc(O)cc(O)c2C(=O)O1 (stereo partly specified)	-2	-5	-2	-5.2	0.0%	1.9
COc1cc(C=C2C(=O)NC(=O)NC2=O)ccc1OCc1ccc([N+](=O)[O-])cc1	0	4	-2	0.5	-1.5%	0.2
Cc1cc(C)c(C(=O)CN2CCOCC2)c(C)c1	6	-12	7	-3.5	1.7%	0.6
O=P(Nc1ccccc1)(Nc1ccccc1)Oc1ccccc1	3	-1	-1	6.4	-1.4%	2.1
CCCNC(=O)N1[C@H]2CC[C@@H]1C(C(=O)OC)=C(c1cc3ccccc3s1)C2	10	-10	-3	-2.1	-1.2%	-0.9
CCc1ccc(N2C(=O)NC(=O)/C(=C\c3cccn3CCOc3ccc(C(C)C)cc3)C2=O)cc1	-2	7	-8	-0.5	11%	-0.6
Cc1ccc(OCC(=O)N2CCCC(N3CCN(c4ccc(F)cc4)CC3)C2)cc1 (stereo unspecified)	-2	-27	-5	-4.0	1.5%	-1.0
CCOC(=O)C1=C(NC(=S)NC(=O)c2ccccc2)c2ccccc2CC12CCCC2	-24	-10	-10	-3.9	-0.8%	1.2

# Whole records, looked up by structure.
# Entry for O=c1[nH]c(=O)n(CCC2=CCCCC2)c(O)c1/C=N/Nc1ccccc1 → CtBP-E1A blk: -6; D2 potentiator: 30; Six1-Eya2 blk: 0; D2 agonist: 4.0; PINK1 modulator: -1.3%; TRPML1 ag: 2.4
# Entry for O=P(Nc1ccccc1)(Nc1ccccc1)Oc1ccccc1 → CtBP-E1A blk: 3; D2 potentiator: -1; Six1-Eya2 blk: -1; D2 agonist: 6.4; PINK1 modulator: -1.4%; TRPML1 ag: 2.1

# Later entries
structure	CtBP-E1A blk	D2 potentiator	Six1-Eya2 blk	D2 agonist	PINK1 modulator	TRPML1 ag
O=c1[nH]c(=S)[nH]c(O)c1N=Nc1ccc2c(c1)OCCO2	-5	-22	-7	-6.7	-3.2%	1.0
Cc1cc(=O)oc2cc(OCC(=O)N3CCC(C(=O)O)(c4ccccc4)CC3)ccc12	-13	-21	-23	-4.3	0.4%	x
N#CC(C#N)=Cc1cccnc1	-6	-3	-1	-3.9	1.4%	-1.1
Cc1cc(O)c2c(c1)C(=O)C13C(=C2O)C(=O)[C@H]2[C@@H](O)[C@@H]1[C@H]1[C@H](O)[C@@H]3C(=O)C3=C(O)c4c(O)cc(C)cc4C(=O)C312 (stereo partly specified)	-19	-30	-23	1.9	28µM*	x
Nc1ncnc2c1ccn2[C@@H]1O[C@H](CO)[C@@H](O)[C@H]1O	6	22	4	9.7	-0.3%	x
CC(C)(C)[C@]1(O)C[C@@H]2OC(=O)C[C@@]23C(=O)O[C@@H]2OC(=O)[C@H](O)[C@]213	0	0	7	-1.4	1.3%	0.0
Cc1ccccc1-n1c(O)c(/C=N/NC(=O)c2ccncc2)c(=O)[nH]c1=O	u	1	u	-0.8	-1.1%	0.8
O=c1c2ccccc2nc(Cc2cccc([N+](=O)[O-])c2)n1-c1ccc(O)cc1	2	-1	0	-4.0	2.6%	1.3
C=CCn1c(O)c(C(CC)=NCCC2=CCCCC2)c(=O)[nH]c1=O	7	2	2	-2.6	x	1.9
Cc1cccc(NC(=O)N2CC3CC(C2)c2cccc(=O)n2C3)c1 (stereo unspecified)	-1	-1	7	6.0	-0.8%	-0.3
Cc1cccc(N2C(=O)CC(=O)NC2=O)c1	6	2	5	-1.5	2.2%	1.2
Cn1cc(C(=O)OCC(=O)Nc2ccccc2)c2ccccc21	1	-21	0	-1.7	2.1%	0.4
O=c1[nH]c(=O)n(Cc2ccc(F)cc2)c(O)c1C=NCCN1CCCCC1	7	-11	-1	-0.8	-1.3%[38.3 µM]	-0.7
CN1CCN(c2nc3ccccc3o2)CC1	-2	-11	-4	-0.4	-0.1%	0.5
NP(=O)(Nc1ccccc1)Nc1ccccc1	-2	1	5	-0.9	-0.3%	0.9
COc1cc2c(c(OC)c1OC)-c1ccc(O)c(=O)cc1[C@@H](NC(C)=O)CC2	-1	-34	-24	-1.4	9.1%	-0.6
CCn1cc(C=C2C(=O)N(C)C(=O)N(C)C2=O)c2ccccc21	2	-2	1	-4.2	1.3%	0.5
